# Screening data (PubChem BioAssay)
# MT1-MMP act inh: inhibitors of human MT1-MMP activation; P50281; HT1080 RFP-PRO-GFP cells, GFP/RFP ratio fluorescence, overnight; percent of plate control window, DMSO zero; GFP/RFP ratio change, % at 20 µM; 0.061% of 360,000 active;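 active means GFP/RFP ratio change of at least 30% with cell ATP level not reduced by more than half and red fluorescence within 50% of control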; further: strong numbers were not always called active
#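 Compound: 20 µM single dose, 1% DMSO / System: HT1080 RFP-PRO-GFP cells / Controls: DMSO and RFP-L50D-GFP cell wells / Read-out basis: GFP/RFP fluorescence ratio / Schedule: overnight compound exposure at 37 °C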
# UUG fidelity: alters start codon recognition fidelity in yeast; S. cerevisiae UUG-firefly luciferase reporter, luminescence/redox ratio; activity score, % at 18.7 µM; 0.13% of 350,000 active; AID 602363;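 active means replicate mean at a twofold rise or more, about +100% in these data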;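 further: firefly luciferase made from a UUG start codon reports start codon fidelity; reporter light over untreated wells divided by growth signal over untreated wells; some hits fall short of that in this replicate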
# MT1-MMP act inh RFP: recorded beside MT1-MMP act inh, whose call it bears; RFP signal change, %; measured here: RFP expression control read;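 0 = vehicle wells; hits needed this value within 50% of zero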
# Starred values were filed as active, the others as inactive.
SMILES,MT1-MMP act inh,MT1-MMP act inh RFP,UUG fidelity
COc1ccccc1CNC(=O)COC(=O)C1CCN(S(=O)(=O)c2c(Cl)cccc2Cl)CC1,0,-1,-13
CCN(CC)C(=O)C1=C(C)N(CCCN2CCCC2=O)C(=O)C(CC(=O)NCCCCc2ccccc2)C1 (stereo not given),1,2,-6
COC(=O)[C@H](CC(C)C)NC(=O)Cn1cnc(C(=O)Nc2ccc(C)c(C)c2)n1,7,8,-8
COC1=CC(C)C2CC3OC(O)CC4C(C)=C(OC)C(=O)C(C2(C)C1=O)C34C (stereo not given),9,4,3
Fc1ccc(-c2nc3ccc(Br)cn3c2Cc2cccc(F)c2)cc1,-6,-1,12
CC1CCC2(CC1)NC(=O)N(NC(=O)c1cc3ccccc3o1)C2=O (stereo not given),1,10,-1
CC(=O)NC(Cc1c[nH]c2ccccc12)C(=O)OCC(=O)N1CCN(S(=O)(=O)c2ccc(Cl)cc2)CC1 (stereo not given),7,-4,15
Cc1cccc(NC(=O)CSc2nc3[nH]c(=O)cc(O)c3s2)c1,-1,0,-6
Cc1c(Cl)cnc(NC(=O)COC(=O)c2ccncc2)c1Cl,-5,0,-15
Cc1ccc(-c2nc3ccc(Br)cn3c2Cc2ccccc2)cc1,-5,4,-3
CCCNC(=O)N1CCN(S(=O)(=O)c2ccc3c(c2)OCCO3)CC1,-2,3,-21
CN(Cc1ccccc1)C(=O)COC(=O)c1ccccc1SCC(=O)N1CCCC1,-1,0,0
CCN(c1ccccc1)S(=O)(=O)c1ccc(OC)c(NC(=O)c2c(C)noc2C)c1,1,3,-4
CCCCCC(=O)N1C[C@H](n2cc(COC(=O)c3ccccc3)nn2)[C@@H](O)C[C@@H]1c1ccc(OC)cc1,2,2,-12
COc1ccc(NC(=O)CNc2ccccc2N2CCCC2=O)cc1S(=O)(=O)N1CCOCC1,2,6,0
CC1=CC2=NC(=O)C(c3ccccc3)C(=O)N2C=C1 (stereo not given),-1,2,-14
O=C(COC(=O)/C=C/c1ccc(Cl)cc1)NC1CCCC1,2,3,-15
CC(NC(=O)CN1C(=O)NC2(CCc3ccccc32)C1=O)c1ccc2c(c1)OCCO2 (stereo not given),3,4,-12
Cc1cc(C(=O)NN=C2CC(=O)CC(C)(C)C2)c(C)o1,5,2,-13
O=C(COC(=O)c1ccco1)Nc1ccc([N+](=O)[O-])cc1Cl,0,4,-12
OC(c1ccc(F)c(F)c1)c1nc(-c2ccoc2)cs1 (stereo not given),-2,0,-6
COc1ccc(C(C)(NC(C)=O)c2nc(-c3cncnc3)cs2)cc1 (stereo not given),-5,0,-4
CN1C(=O)[C@H]2[C@@H](c3ccc(C(F)(F)F)cc3)N[C@]3(CCCN(Cc4ccc(C(F)(F)F)cc4)C3=O)[C@H]2C1=O,5,-4,-4
CC1=C(C(=O)N2CCCCCC2)CC(CC(=O)NC(c2ccccc2)c2ccccc2)C(=O)N1Cc1ccccc1 (stereo not given),0,-4,-1
CC1=C(C(=O)N2CCOCC2)CC(CC(=O)NCCc2ccccn2)C(=O)N1Cc1ccccc1 (stereo not given),4,4,-9
# Further entries follow:
SMILES,MT1-MMP act inh,MT1-MMP act inh RFP,UUG fidelity
Cc1ccc(S(=O)(=O)N2CCOCC2)cc1NC(=O)COC(=O)c1cccc(Cl)c1Cl,0,-2,-4
O=C(c1ccc(F)c(S(=O)(=O)N2CCOCC2)c1)N1CCN(c2ccc(F)cc2)CC1,-4,-1,22
COCCOc1ccc(C(F)(F)F)cc1NC(=O)COC(=O)Cc1c[nH]c2ccccc12,2,4,-1
F[B-](F)(F)c1cc2cc(Br)ccc2s1,4,6,26
CC1CCN(S(=O)(=O)c2ccc3c(c2)C(Cl)(Cl)C(=O)N3)CC1,0,6,4
CCOC(=O)C1=CCC2C(=O)N(C3CCCCC3)C(=O)C12 (stereo not given),1,2,4
CCCS(=O)(=O)NC(=O)C1(C)CCCN(C(=O)c2cncc(Br)c2)C1 (stereo not given),3,5,0
Cc1cn([C@H]2C[C@H](O)[C@@H](CCC(=O)NCC(c3ccccc3)c3ccccc3)O2)c(=O)[nH]c1=O,5,6,19
COc1ccc(NC(=O)/C(N=Nc2cccc(S(=O)(=O)Nc3ccc(SC(F)F)cc3)c2)=C(\C)O)cc1,8,1,-11
CC1CC(C)CN(S(=O)(=O)c2ccc(NC(=O)CCNC(=O)c3ccc([N+](=O)[O-])cc3)cc2)C1 (stereo not given),-4,-1,-4
O=C(O)c1ccc(COc2ccc([N+](=O)[O-])cc2Cl)cc1,2,-1,-13
CC(=O)NS(=O)(=O)c1ccc(NC(=O)c2ccc(S(=O)(=O)N3CCCC3)cc2)cc1,-4,2,-9
Cc1ccc(S(=O)(=O)N2CCCCC2)cc1NC(=O)CCN1C(=O)C2CC=CCC2C1=O (stereo not given),1,2,-11
COc1ccc(-c2coc3c(C(=O)NC(C)C)cccc23)c(C)c1,1,-9,-11
COc1ccc2c(c1)CO[C@@]21O[C@H](CCO)C[C@H](O)[C@H]1O,-1,-2,-8
O=C1NC(Cc2ccc(O)cc2)c2nc3cc(Cl)ccc3c(=O)n2-c2cc(Cl)ccc21 (stereo not given),-32,-27,6
CC(=O)N1N=C(c2ccc(NS(=O)(=O)c3ccccc3)cc2)CC1c1ccco1 (stereo not given),0,-15,-1
O=C(Cc1ccccc1F)N1CCN(S(=O)(=O)c2ccc(Cl)cc2)CC1,3,0,4
COc1ccc(CC(=O)Nc2ccc(S(=O)(=O)N3CCN(C)CC3)cc2)cc1,6,-2,0
N#Cc1ccccc1COC(=O)c1ccc2c(c1)OCO2,-2,0,-4
Cc1nnnn1/C(=C\c1ccccc1)C(=O)OCC(=O)Nc1cccc(S(=O)(=O)N(C)C)c1,-7,-22,4
O=C(c1ccc(-c2cc(O)c3ncccc3c2)cc1)N1CCNCC1,-10,-1,-28
CC1(c2ccccc2)NC(=O)N(CC(=O)NCCN2C(=O)S/C(=C\c3cccnc3)C2=O)C1=O (stereo not given),0,1,-19
O=C(COC(=O)CSc1ccc([N+](=O)[O-])cc1)NCCC1=CCCCC1,0,5,-5
COc1ccc(OC)c(-c2nnc3n2N=C(c2ccc(OC)c(OCC4CC4)c2)CS3)c1,14,-7,-8
# (continued)
SMILES,MT1-MMP act inh,MT1-MMP act inh RFP,UUG fidelity
COc1ccc(C2=Nc3ccccc3NC(=O)C2N(CCCn2ccnc2)C(=O)c2cccc(S(C)(=O)=O)c2)cc1 (stereo not given),2,4,-11
COc1cccc(NC(=O)CN(C)CC(=O)c2c(C)[nH]c3ccccc23)c1,-3,1,-8
O=C(COc1ccc(-n2cnnn2)cc1)Nc1ccc(F)c(F)c1F,2,4,-18
CCN1CCN(Cc2ccc(NC(=O)c3ccc(C)c(NC(=O)c4cncc(-c5cccs5)c4)c3)cc2C(F)(F)F)CC1,-17,-10,5
O=C(NN1CCOCC1)c1ccco1,3,1,-11
CC(C)=CCCC(C)CCO (stereo not given),-1,4,-14
Cc1ccc(C(C)C)c(OCC(=O)NNC(=O)C2CSC3(C)CCC(=O)N23)c1 (stereo not given),0,2,-9
CCCOc1ccc(C(F)(F)F)cc1NC(=O)C1CC(=O)N(Cc2ccco2)C1 (stereo not given),0,-2,-5
Cc1cccc(C)c1NC(=O)CNC(=O)c1c(-c2ccccc2)noc1C,-1,0,-7
CC(c1ccccc1)N1CC(C(=O)N2CCN(Cc3ccc(C#N)cc3)CC2)CC1=O (stereo not given),4,-13,4
COc1ccc(C(=O)OCC(=O)N2CCCCCC2)cc1S(=O)(=O)N1CCOCC1,-1,3,9
Cc1cccc(N=C2CCCC2C(=O)Nc2cccc(C)c2C)c1C (stereo not given),-1,2,9
CC(C)N(CCn1c(SCC(=O)Nc2cccnc2Cl)nc2ccccc2c1=O)C(C)C,-5,5,-16
COc1ccc(S(=O)(=O)N2CCOCC2)cc1NC(=O)CN1C(=O)NC2(CCCCC2C)C1=O (stereo not given),1,5,0
O=C(OCc1cn([C@@H]2CN(Cc3cccs3)[C@@H](c3ccc(Cl)cc3)C[C@H]2O)nn1)c1ccccc1,0,-2,-8
COc1ccc(C(=O)COC(=O)CNC(=O)c2ccccc2)cc1F,-3,2,-5
CC1(C(=O)NS(=O)(=O)c2ccccc2)CCN1C(=O)c1ccc(C2CCCCC2)cc1 (stereo not given),-3,7,-4
O=C(NCc1ccccc1)c1cccc2c(-c3ccc(F)c(F)c3)coc12,1,0,-1
N#Cc1cccc(NC(=O)CN2C(=O)NC3(CCCCCC3)C2=O)c1,1,-1,-3
CC(=O)N1CCN(Cc2cc(=O)oc3cc(C)cc(C)c23)CC1,0,1,6
CN1CCN(S(=O)(=O)c2cccc(C(=O)NC3(C)CCS(=O)(=O)C3)c2)CC1 (stereo not given),3,4,-5
CC1CC(C)CN(C(=O)c2ccc3c(c2)OCCO3)C1 (stereo not given),-5,0,6
O=c1oc2ccccc2c(O)c1Sc1c(O)c2ccccc2oc1=O,2,5,-19
COc1cc(N)c2ncsc2c1,4,2,-35
COCCNC(=S)N(C)[C@H]1C[C@H]2c3cc(N4CCN(C)CC4)ccc3CCN2C(=O)[C@H]1[C@H](C)O,0,1,-16

# Given with values under each structure: part of the list above.
# Every second line gives: MT1-MMP act inh | MT1-MMP act inh RFP | UUG fidelity
- COc1ccc(C2=Nc3ccccc3NC(=O)C2N(CCCn2ccnc2)C(=O)c2cccc(S(C)(=O)=O)c2)cc1 (stereo not given)
  2 | 4 | -11
- COc1cccc(NC(=O)CN(C)CC(=O)c2c(C)[nH]c3ccccc23)c1
  -3 | 1 | -8
- O=C(COc1ccc(-n2cnnn2)cc1)Nc1ccc(F)c(F)c1F
  2 | 4 | -18
- CCN1CCN(Cc2ccc(NC(=O)c3ccc(C)c(NC(=O)c4cncc(-c5cccs5)c4)c3)cc2C(F)(F)F)CC1
  -17 | -10 | 5
- O=C(NN1CCOCC1)c1ccco1
  3 | 1 | -11
- CC(C)=CCCC(C)CCO (stereo not given)
  -1 | 4 | -14
- Cc1ccc(C(C)C)c(OCC(=O)NNC(=O)C2CSC3(C)CCC(=O)N23)c1 (stereo not given)
  0 | 2 | -9
- CCCOc1ccc(C(F)(F)F)cc1NC(=O)C1CC(=O)N(Cc2ccco2)C1 (stereo not given)
  0 | -2 | -5
- Cc1cccc(C)c1NC(=O)CNC(=O)c1c(-c2ccccc2)noc1C
  -1 | 0 | -7
- CC(c1ccccc1)N1CC(C(=O)N2CCN(Cc3ccc(C#N)cc3)CC2)CC1=O (stereo not given)
  4 | -13 | 4
- COc1ccc(C(=O)OCC(=O)N2CCCCCC2)cc1S(=O)(=O)N1CCOCC1
  -1 | 3 | 9
- Cc1cccc(N=C2CCCC2C(=O)Nc2cccc(C)c2C)c1C (stereo not given)
  -1 | 2 | 9
- CC(C)N(CCn1c(SCC(=O)Nc2cccnc2Cl)nc2ccccc2c1=O)C(C)C
  -5 | 5 | -16
- COc1ccc(S(=O)(=O)N2CCOCC2)cc1NC(=O)CN1C(=O)NC2(CCCCC2C)C1=O (stereo not given)
  1 | 5 | 0
- O=C(OCc1cn([C@@H]2CN(Cc3cccs3)[C@@H](c3ccc(Cl)cc3)C[C@H]2O)nn1)c1ccccc1
  0 | -2 | -8
- COc1ccc(C(=O)COC(=O)CNC(=O)c2ccccc2)cc1F
  -3 | 2 | -5

# Following part.
SMILES,MT1-MMP act inh,MT1-MMP act inh RFP,UUG fidelity
O=C(COC(=O)c1ccc2ccccc2c1O)NCc1ccccc1,3,8,-16
CC(=O)c1cc2c(cc1NC(=O)Cn1cnc3ccccc3c1=O)OCO2,4,-2,-8
CC1=CCC[C@H]2[C@H](C1)C(=O)C[C@@H](C)[C@]2(C)CC/C(=C/CO)CO,1,-1,2
O=C(Nc1ccc(F)c(Cl)c1)C1CCCN(C2=NS(=O)(=O)c3ccccc32)C1 (stereo not given),0,-4,-15
O=S1(=O)C[C@@H](N2CCN(c3ccccn3)CC2)[C@H](COCc2ccccc2)N1,-2,-1,-4
CC(C)CC1C(=O)N(Cc2cn(Cc3ccco3)nn2)CCS(=O)(=O)N1Cc1ccc(-c2ccc(F)cc2)cc1 (stereo not given),0,-5,-5
O=C(NCC(=O)N1CCN(C(=O)c2ccccc2)CC1)c1ccccc1,-1,3,-9
O=C(CN1C(=O)NC2(CCCCCC2)C1=O)NCCc1ccc(F)cc1,-1,1,-11
CCCCNC(=O)C1(C)CCC(=O)N1CCOc1ccccc1 (stereo not given),0,-1,-3
O=S(=O)(c1ccccc1)N1CCN(S(=O)(=O)c2ccccc2)c2ccccc21,5,-1,-14
COc1cc(C(=O)NNC(=O)c2cc(S(=O)(=O)N(C)C)ccc2N2CCCC2)cc(OC)c1OC,1,3,-26
Cn1ccc(NC(=O)c2ccc([N+](=O)[O-])cc2)n1,3,-1,-3
Cc1ccc(-n2ncc3c(=O)n(CC(=O)N4CCN(C(=O)c5ccco5)CC4)cnc32)cc1,0,-1,-16
N#CC1(NC(=O)CSc2nnc(C3CC3)n2C2CC2)CCCCC1,2,2,-5

# These rows are one share of the data, so the mix of outcomes need not match the whole.
